# TRPML1 blocker = inhibitors of human TRPML1 channel. TRPML1-inducible cells, Ca2+ dye fluorescence, FDSS; active compounds read low; inhibition of EC80 agonist-evoked calcium signal. hit rate 0.02% among 390,000. activity change, negative = inhibition, % (concentration not given with the values); in the data active means activity change below about -50%; inconclusive means about -30% to -50%; inactive means above about -30%;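 note: stimulus is agonist 54-4 at its EC80 concentration; % is set by controls: 0 for no effect and ±100 for the full control effect; the text of the record puts the active cut at -80%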
#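 Tet-induced TRPML1-DL cells loaded with Ca8 no-wash calcium dye were read kinetically on FDSS. Compound addition was followed by EC80 agonist 54-4 (4 uM final); inhibition was read over 110 s.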
# D2 potentiator = human D2 receptor positive allosteric modulation; AID 624464; hit rate 0.23% among 360,000; DiscoveRx D2 beta-arrestin cells, luminescence, 90 min; 100% = 57 uM dopamine signal; potentiation, % (concentration not given with the values); active = potentiation of 50% or more; inconclusive = 30% to 50%; inactive = 30% or less;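 note: compound concentration not given in the record; tested on top of an EC20 dose of dopamine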
#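 PathHunter beta-arrestin assay in DiscoveRx D2 cells. Compounds were added with an EC20 of dopamine (50 nM final) for 90 min at 37 deg C. Luminescence was read 1 h after detection reagent, with 57 uM dopamine as the EC100 control.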
# CtBP-E1A blk = blocks the CtBP interaction with E1A. activity change, % (test concentration not listed). AlphaScreen GST-E1A/His-CtBP binding, 1536-well; active compounds read low; control for the full effect not named in the record. hit rate 0.49% among 340,000. AID 651724; in the data active means activity change below about -65%; inconclusive means about -30% to -65%; inactive means above about -30%; note: % is set by controls: 0 for no effect and ±100 for the full control effect
#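 Homogeneous bead-based format: GST-tagged E1A captured on glutathione donor beads, His-tagged CtBP on nickel acceptor beads; compounds precede bead addition by 2 h at 37 °C.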
# TRPV1 PAM = human TRPV1 potentiation. TRPV1-expressing cells, Fluo-8 calcium influx, capsaicin EC20 potentiation; host cell line not named in the record; control for the full effect not named in the record. potentiation, % at 8.33 µM. hit rate 0.02% among 320,000; active means potentiation above 80%; inconclusive means 30% to 80%; inactive means below 30%; note: 0% is about no effect
#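 Cells expressing TRPV1 were dye-loaded with Fluo-8 and read kinetically: 10 s baseline, 3 min after compound (agonist portion), then 2 min after EC20 capsaicin (allosteric enhancer portion). Calcium-bound dye fluorescence at 480/520 nm.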
# TRPML1 ag = human mucolipin-1 channel agonism; TRPML1-expressing cells, Ca2+ dye fluorescence, FDSS; host cell line not named in the record; reference of the full effect not given here; activation, % (concentration not given with the values); Q9GZU1; AID 624414; hit rate 0.12% among 410,000; in the data active = activation above about 50%; inconclusive = about 30% to 50%; inactive = below about 30%; note: 0% is about no effect; the text of the record puts the active cut at 80%
#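 Kinetic FDSS Ca2+ read in Tet-induced TRPML1-DL cells (ABD Ca8 dye plus quencher, 45-90 min RT loading): baseline, then compound, then 110 s agonist window; EC80 agonist 54-4 at 4uM final added afterwards for a 110 s antagonist window.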
# Six1-Eya2 inh = Six1/Eya2 interaction inhibition; activity change, % (concentration not given with the values); AID 651725; hit rate 0.56% among 360,000; AlphaScreen GST-Six1/His-Eya2 binding, biochemical; active compounds read low; control for the full effect not named in the record; Q15475+O00167; in the data active = activity change below about -65%; inconclusive = about -30% to -65%; inactive = above about -30%; note: % is set by controls: 0 for no effect and ±100 for the full control effect
# Target sequence (O00167 whole entry, looked up): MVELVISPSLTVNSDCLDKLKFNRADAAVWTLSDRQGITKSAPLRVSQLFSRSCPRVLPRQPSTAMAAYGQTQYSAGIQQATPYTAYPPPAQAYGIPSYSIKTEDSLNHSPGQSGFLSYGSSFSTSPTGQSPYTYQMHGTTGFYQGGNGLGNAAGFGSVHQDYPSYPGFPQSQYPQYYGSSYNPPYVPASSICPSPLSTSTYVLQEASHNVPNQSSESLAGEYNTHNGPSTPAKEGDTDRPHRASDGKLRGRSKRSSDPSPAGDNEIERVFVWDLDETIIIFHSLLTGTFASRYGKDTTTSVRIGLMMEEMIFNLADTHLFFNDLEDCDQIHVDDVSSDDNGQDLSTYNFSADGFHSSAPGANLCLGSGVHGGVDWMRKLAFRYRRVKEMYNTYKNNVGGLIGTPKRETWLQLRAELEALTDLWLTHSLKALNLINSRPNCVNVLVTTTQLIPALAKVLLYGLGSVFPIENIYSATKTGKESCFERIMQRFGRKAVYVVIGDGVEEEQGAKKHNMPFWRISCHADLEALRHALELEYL
# Target sequence (Q15475 whole entry, looked up): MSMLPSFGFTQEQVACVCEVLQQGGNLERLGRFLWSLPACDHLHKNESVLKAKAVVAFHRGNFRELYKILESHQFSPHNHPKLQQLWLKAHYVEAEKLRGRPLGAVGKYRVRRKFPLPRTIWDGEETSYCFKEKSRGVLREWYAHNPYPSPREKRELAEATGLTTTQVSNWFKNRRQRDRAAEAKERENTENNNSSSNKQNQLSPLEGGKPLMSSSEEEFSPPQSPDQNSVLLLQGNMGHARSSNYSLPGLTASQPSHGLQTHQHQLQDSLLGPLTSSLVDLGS
#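 AlphaScreen with GST-Six1 and His-Eya2 (5X mix: 250 nM and 500 nM), glutathione donor and nickel acceptor beads; buffer 50 mM Tris pH 8.0, 300 mM NaCl, 1 mM TCEP; 1 h at 37 C in the dark.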
# An asterisk follows results filed as active; ? = inconclusive; · = no result given; & = joins results of further samples.
SMILES,TRPML1 blocker,D2 potentiator,CtBP-E1A blk,TRPV1 PAM,TRPML1 ag,Six1-Eya2 inh
COc1ccc(C(=O)CC(=O)C(=O)Nc2ccc(C)cc2Cl)cc1,21,-11,-4,-13,-1.2,-14
COC(=O)c1nnn(-c2nonc2N)c1CSCCO,-2,-3,8,-1,-0.3,8
CC(C)Cc1nnc(NC(=O)CC(=O)Nc2ccccc2C(=O)O)s1,-5,-10,0,18,-1.0,21
Cc1ccccc1Nc1nc2ccccc2n1C(C)C,-5,-24,5,15,0.9,2
Cn1c(-c2ccccc2)cnc1N,13,-37,?,-1,2.3,?
CCn1cc(CNC(=O)C2CCC(=O)N(Cc3ccccc3F)C2)cn1 (stereo unspecified),-2,5,6,-1,-0.4,17
CC(N=C1NS(=O)(=O)c2ccccc21)C(=O)NCCCc1ccccc1 (stereo unspecified),7,-37,2,-2,-1.5,-6
Cn1cccc1CC(=O)N/N=C/c1ccc(Cl)c([N+](=O)[O-])c1,-2,-8,-16,1,5.4,-20
CC(C)(C)NC(=O)C(c1ccc(F)cc1)N(Cc1ccccc1Cl)C(=O)c1ccn[nH]1 (stereo unspecified),16,2,·,-11,1.0,-1
CN(C)CCCn1c2c(c(SCC(=O)Nc3ccc4c(c3)OCCO4)nc1=O)CCC2,18,1,17,6,-0.2,-2

# Two entries from above, set out differently:
CC(C)(C)NC(=O)C(c1ccc(F)cc1)N(Cc1ccccc1Cl)C(=O)c1ccn[nH]1 (stereo unspecified)
  TRPML1 blocker: 16 | D2 potentiator: 2 | CtBP-E1A blk: · | TRPV1 PAM: -11 | TRPML1 ag: 1.0 | Six1-Eya2 inh: -1
CN(C)CCCn1c2c(c(SCC(=O)Nc3ccc4c(c3)OCCO4)nc1=O)CCC2
  TRPML1 blocker: 18 | D2 potentiator: 1 | CtBP-E1A blk: 17 | TRPV1 PAM: 6 | TRPML1 ag: -0.2 | Six1-Eya2 inh: -2

# Some values from above:
# `CC(C)Cc1nnc(NC(=O)CC(=O)Nc2ccccc2C(=O)O)s1` | Six1-Eya2 inh = 21
# `COC(=O)c1nnn(-c2nonc2N)c1CSCCO` | Six1-Eya2 inh = 8
# `COc1ccc(C(=O)CC(=O)C(=O)Nc2ccc(C)cc2Cl)cc1` | Six1-Eya2 inh = -14
# `Cn1cccc1CC(=O)N/N=C/c1ccc(Cl)c([N+](=O)[O-])c1` | TRPML1 blocker = -2

# Further records
SMILES,TRPML1 blocker,D2 potentiator,CtBP-E1A blk,TRPV1 PAM,TRPML1 ag,Six1-Eya2 inh
Cc1ccc(S(=O)(=O)Nc2cccc(C(=O)NCC(C)(C)N3CCOCC3)c2)cc1F,23,11,1,8,1.0,0
CC[C@@]1(C(=O)OC)N[C@H](CN(C)S(=O)(=O)c2ccc(F)cc2)[C@@H]2C(=O)N(C)C(=O)[C@@H]21,13,1,5,·,-0.7,9
COc1ccccc1C(=O)Nc1ccc(OCC(=O)N2CC(C)OC(C)C2)cc1 (stereo unspecified),-8,0,3,4,1.8,2
Cc1c(Br)c([N+](=O)[O-])nn1C(C)C(=O)Nc1c(C)n(C)n(-c2ccccc2)c1=O (stereo unspecified),9,3,10,23,0.0,1
COc1ccc(OC)c(NC(=O)C23CCC(C)(C(=O)C2)C3(C)C)c1 (stereo unspecified),4,4,2,-16,1.7,-7
COc1ccc(CCNC(=O)COC(=O)/C=C/c2ccc3c(c2)OCO3)cc1,0,5,-4,·,-0.6,4
O=C(O)CC1(CC(=O)Nc2cccc(C(=O)O)c2)CCCC1,26,-14,·,4,-0.1,10
CCN(CC)CCCNC(=O)c1cn(CCOC)c(=O)c2c1c1ccccc1n2C,-7,-13,1,7,0.3,-2
COc1ccc(NC(=O)Nc2cc(C(C)(C)C)on2)cc1OC,8,7,-4,3,0.2,-3
Cc1ccc(NC(=O)Nc2cccc(Cl)c2)c(C(=O)O)c1,12,-14,·,?,-0.1,-4
CN(C)CC1CCCCC1C1(O)c2ccccc2CSc2sccc21 (stereo unspecified),-5,-5,-1,-6,1.0,-6
CC(=O)Oc1cc(C(=O)OCC(=O)N2CCc3ccccc3C2)cc(OC(C)=O)c1OC(C)=O,-2,12,-12,·,0.1,-3
CCOC(=O)c1ccc(NC(=O)c2nc[nH]c2C(=O)NCCCNC(=O)c2[nH]cnc2C(=O)Nc2ccc(C(=O)OCC)cc2)cc1,4,2,5,5,-0.8,3
Clc1ccc2c(c1)nc1n2CCCC1,3,-8,·,-10,-0.6,3
CCOC(=O)C(NC(=O)CC)(N1CCc2ccccc2C1)C(F)(F)F (stereo unspecified),-10,0,1,1,-0.8,-2
Cc1ccc(/C=C2\SC(=S)N(c3cccnc3)C2=O)o1,15,-6,-12,13,-0.3,-6
CCC1(c2ccccc2)NC(=S)N(c2ccc(C)cc2)N1 (stereo unspecified),-3,-10,4,-1,1.0,4
CCc1ccc(S(=O)(=O)NC2CC(C)(C)NC(C)(C)C2)cc1,-9,-1,6,-16,-0.6,1
COc1ccc(S(=O)(=O)N2CCOCC2)cc1NC(=O)Cc1ccsc1,2,-2,3,·,3.5,7
COc1ccccc1CNC(=O)CSc1ccc(-c2cccc([N+](=O)[O-])c2)nn1,-8,-3,1,3,0.0,-3
CCCC(=O)N(C1CC(C)C(C#N)(C#N)C1(C#N)C#N)N(C)C (stereo unspecified),16,-25,-4,5,0.3,-29
CCc1cccc2sc(N(CCCN3CCOCC3)C(=O)CS(=O)(=O)c3ccccc3)nc12,1,-13,-3,27,-0.1,-17
CCC(C)C(NC(=O)C1CCC(C)CC1)C(=O)Nc1ccc(OC)cc1OC (stereo unspecified),-12,-2,25,-27,1.3,0
O=C1OCCC1=CN1CCCCC1,4,-3,5,·,-0.5,-2
CCOC(=O)C1=C(COC(=O)c2cccc(N(C)C)c2)NC(=O)NC1C (stereo unspecified),-1,-7,-4,-11,0.8,-13
Cc1cc(C)n2nc(SCC(=O)c3c(N)n(CC(C)C)c(=O)n(C)c3=O)nc2n1,8,-4,8,-16,-0.1,-4
O=C(c1ccc(F)cc1)N1CCC(C(=O)N2CCN(S(=O)(=O)c3cccc([N+](=O)[O-])c3)CC2)CC1,19,15,-1,26,-0.8,3
COc1ccc(C2OC(=O)CC2C(=O)NCc2ccccc2Cl)cc1OC (stereo unspecified),4,-34,-12,5,0.4,-7
O=C(COc1ccccc1)OCc1csc(Nc2ccccc2)n1,13,1,-4,2,1.0,-7
CC(=O)Nc1ccc(S(=O)(=O)N(CC(=O)NC2CC2)Cc2ccccc2)cc1,-13,-1,-9,·,0.8,0

# 3 entries already listed, ordered by the number in TRPML1 blocker, high to low:
SMILES	TRPML1 blocker	D2 potentiator	CtBP-E1A blk	Six1-Eya2 inh
CCCC(=O)N(C1CC(C)C(C#N)(C#N)C1(C#N)C#N)N(C)C (stereo unspecified)	16	-25	-4	-29
O=C(COc1ccccc1)OCc1csc(Nc2ccccc2)n1	13	1	-4	-7
Cc1cc(C)n2nc(SCC(=O)c3c(N)n(CC(C)C)c(=O)n(C)c3=O)nc2n1	8	-4	8	-4

# Next part:
SMILES,TRPML1 blocker,D2 potentiator,CtBP-E1A blk,TRPV1 PAM,TRPML1 ag,Six1-Eya2 inh
O=C(CCCn1c(=O)c2ccccc2n(Cc2ccccc2)c1=O)NCc1ccco1,-13,1,-6,2,3.9,0
CC(=O)c1ccc(N2CCN(C(=O)c3cc4c(C)nc5ccccc5c4o3)CC2)cc1,-1,7,10,24,-0.5,4
C[C@H](CO)N1C[C@H](C)[C@@H](CN(C)C(=O)Nc2ccccc2F)Oc2ncc(Br)cc2C1=O,-6,-3,-4,·,-0.3,-1
O=C(CN1CCC(NC(=O)Nc2ccc(F)cc2)CC1)Nc1ccccc1[N+](=O)[O-],-15,-1,7,-17,2.5,5
CN(CCCNC(=O)C1CCCN(S(=O)(=O)c2cnc[nH]2)C1)c1ccccc1 (stereo unspecified),-2,1,2,·,-0.1,-8
CCCCNc1nc(CC(C)=O)ns1,6,2,7,4,0.9,-1
CCOc1ccc(N2C(=O)CC(N3CCN(c4ccc(C(=O)c5ccncc5)cc4)CC3)C2=O)cc1 (stereo unspecified),-1,2,0,·,-0.6,9
Cc1cccc(C(=O)Nc2ccc(S(=O)(=O)Nc3nc(C)cc(C)n3)cc2)c1,1,0,5,15,0.0,4
CCCCN(CC)CCCNC(=O)c1cc2c(-c3ccc(OC)c(OC)c3)nn(C)c2s1,19&1,-39,?,-4,0.1&-1.3,?
C=CCn1c(C)cc(C(=O)COc2ccc(N(C)S(=O)(=O)c3ccc(NC(C)=O)cc3)cc2)c1C,-4,0,-10,·,0.5,-16
Cc1ccc(-n2ncc3c(SCC(=O)NNC(=O)c4ccco4)ncnc32)cc1,-2,-3,·,-1,0.2,12
O=C(COC(=O)c1ccc(Br)o1)NCC1CCCO1 (stereo unspecified),-10,-6,16,2,-0.5,9
CC(=O)c1cccc(NC(=O)c2ccc(OCc3c(C)noc3C)cc2)c1,2,-8,·,-14,-1.6,-3
S=C1NCC(c2ccccc2)S1 (stereo unspecified),-19,-7,18,·,-0.8,6
Cc1ccc2c(CN3CCN(Cc4ccc5c(c4)OCO5)CC3)cc(=O)oc2c1C,3,-36,1,-9,1.1,4
COc1ccccc1OCc1cc(C(=O)N2CCN(C)C(c3ccccc3)C2)no1 (stereo unspecified),-4,-8,-1,-26,-0.4,-27
Cc1cc(C)n(CC(C)NCc2c(C(=O)N3CCOCC3)nc3c(C)cccn23)n1 (stereo unspecified),11,-3,5,-30,0.7,3
CCCNC(=O)C1CCC(CNS(=O)(=O)c2ccc3c(c2)CC(C)N3C(C)=O)CC1 (stereo unspecified),19&3,-10,-6,23,1.0&0.8,4
CCN1CCN(Cc2ccc(NC(=O)c3cc(NC(=O)c4cnn(-c5ccccc5)c4N)cc(OC)c3)cc2C(F)(F)F)CC1,4,-16,-9,-2,0.9,-5
CCOC(=O)c1cccc(NC(=O)c2ccc3c(c2)C(=O)N(CC2CCCO2)C3=O)c1 (stereo unspecified),28,-7,1,-9,-0.5,-3
FCc1nc2nc(Cl)c(Cl)nc2[nH]1,-3,-1,2,·,-0.7,-11
CCC(=O)N1CC(C)C(=O)Nc2ccccc21 (stereo unspecified),-27,-12,11,-16,0.2,8
COc1cc(SC)ccc1C(=O)N(C)CC(=O)Nc1cccc2ccccc12,7,-24,4,-1,3.9,1
O=C(NCc1ccco1)c1ccc(COc2ccccc2Cl)cc1,28,-18,0,-12,3.9,0
COc1ccc(CCNc2ncccc2C#N)cc1OC,-19,0,3,7,1.8,-6
Cc1occc1C(=O)N1CCC2(CCCN(Cc3ccc(F)c(F)c3)C2)C1 (stereo unspecified),19,-14,-6,-13,0.7,-13
COc1ccc(NC(=O)C23CC4CC(C2)CC(n2cnc(Br)n2)(C4)C3)cc1OC,-25,-17,3,-8,1.8,2
Cc1ccccc1C(=O)NC(CC(C)C)C(=O)Nc1ccc(F)c([N+](=O)[O-])c1 (stereo unspecified),-6,-4,-20,8,-0.4,2
COc1ccc(Cl)cc1CC1(C)C(=O)Nc2ccc(S(=O)(=O)NC3CCCCC3)cc21 (stereo unspecified),·,-1,-3,·,-0.5,-2
CNCCCOc1cccc(Oc2ccccc2)c1,38,-5,-1,9,-0.8,-1
FC(F)(F)c1cc(N2CCNCC2)c2ccccc2n1,-4,-4,0,6,-0.4,14
CC(C)(C)OC(=O)NNC(=O)NC12CC3CC(CC(C3)C1)C2,-23,-10,0,-2,0.2,2
COc1cccc(-c2cnc(C(O)c3ccc(C)cc3)[nH]2)c1 (stereo unspecified),-6,-20,-11,·,0.3,-11
COc1ccc2[nH]c3c(Cl)ncnc3c2c1,3,-13,-19,-23,1.7,-10
